# Bioassay records from PubChem.
# Mtb growth – M. tuberculosis H37Rv growth inhibitors, H37Rv strain (AID 1626); M. tuberculosis H37Rv growth inhibition; higher % means a stronger effect; one-dose inhibition, % at 10 µM; IC50 in µM for titrated hits; 0.95% of 220,000 active;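 active = confirmed in a dose series; inconclusive = inhibition above 80% but not taken into the dose series; inactive = below 80% or under 30% at every dose of the series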;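 also: bacteria incubated seven days before Alamar blue readout; 0% = bacteria only wells and 100% = bacteria with antibiotic wells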
# Mtb betalactam – beta-lactam sensitization of Mtb H37Rv, H37Rv; M. tuberculosis H37Rv growth with meropenem, percent inhibition; hits of this screen are not shown here; inhibition, % at 25 µM; 0.27% of 330,000 active; AID 434955, 2010;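 active = about 74% or more and at least 40 points above the plate without the antibiotic, then above 30% in a dose series; inconclusive = first-round hits that could not be retested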;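 also: growth measured after seven days incubation then overnight dye step; 0% = bacteria only wells and 100% = bacteria with antibiotic; twin plates without the antibiotic show which effects depend on it; some results filed as inactive read as strong as hits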
# YopH PTP inh – YopH tyrosine phosphatase inhibitors, primary screen, biochemical, fluorescence Ex485/Em525 | 0.16% of 140,000 active | YopH tyrosine phosphatase [Yersinia enterocolitica] | inhibition, %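 (about 10 µM by stock and volumes)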;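 active = inhibition of 50% or more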;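 also: controls were vehicle for no effect and minimum signal wells for full effect; inactives centre near -20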
# Arbovirus inh – antivirals against arbovirus infection, primary screen, cell-based, full library, 10K replicate subset; arbovirus infection cell-based antiviral screen; inhibition, % at 10 µM; 0.37% of 200,000 active;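 active = inhibition from about 30%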;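 also: bluetongue infection of BSR cells; cell survival read as ATP light after 72 h; 0% = infected wells without compound and 100% = uninfected wells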
# RecA intein inh – Mtb RecA intein splicing inhibitors, primary screen, biochemical, fluorescence, HTS. inhibition, %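 (about 9 µM by stock and volumes)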. cell-free RecA intein splicing. 0.75% of 290,000 active. Protein RecA (Mycobacterium tuberculosis (strain ATCC 25618 / H37Rv)), P9WHJ3; in the data active = inhibition above about 30%; inconclusive = no clear call, values can overlap the other calls;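 also: 0% = vehicle wells and 100% = reference inhibitor control wells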
# Target sequence (P9WHJ3 whole entry, looked up): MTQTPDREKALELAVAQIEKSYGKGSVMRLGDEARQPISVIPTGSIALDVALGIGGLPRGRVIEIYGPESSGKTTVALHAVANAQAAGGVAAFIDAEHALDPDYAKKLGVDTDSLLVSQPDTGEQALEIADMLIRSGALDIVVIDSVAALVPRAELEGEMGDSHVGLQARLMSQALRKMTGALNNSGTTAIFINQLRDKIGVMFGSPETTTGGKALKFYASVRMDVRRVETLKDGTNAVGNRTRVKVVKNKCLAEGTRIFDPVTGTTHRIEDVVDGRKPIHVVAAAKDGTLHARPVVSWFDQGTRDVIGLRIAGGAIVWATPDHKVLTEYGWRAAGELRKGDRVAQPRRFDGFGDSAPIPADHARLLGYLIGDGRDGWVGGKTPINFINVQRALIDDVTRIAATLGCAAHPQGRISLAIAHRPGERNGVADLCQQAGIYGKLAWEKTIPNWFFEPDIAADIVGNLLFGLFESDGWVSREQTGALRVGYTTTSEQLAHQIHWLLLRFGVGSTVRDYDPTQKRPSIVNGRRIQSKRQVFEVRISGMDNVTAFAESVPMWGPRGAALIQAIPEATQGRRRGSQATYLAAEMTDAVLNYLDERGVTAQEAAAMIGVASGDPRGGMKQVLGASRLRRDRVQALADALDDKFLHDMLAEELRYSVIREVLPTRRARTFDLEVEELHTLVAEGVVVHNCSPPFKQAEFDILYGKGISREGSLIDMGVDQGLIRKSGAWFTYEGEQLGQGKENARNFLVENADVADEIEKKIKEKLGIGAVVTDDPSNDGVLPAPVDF
# Arbovirus inh repeat – recorded beside Arbovirus inh, whose call it bears; inhibition, %; measured here: 10K subset replicate screen; many hits read low in the repeat;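 first of two repeat runs on a subset; 0% = infected and 100% = uninfected wells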
# Starred values were filed as active, the others as inactive; ? = inconclusive; · = not tested or not shown. A portion of the library. The share of hits here may be higher or lower than overall.
SMILES,Mtb growth,Mtb betalactam,YopH PTP inh,Arbovirus inh,RecA intein inh,others
FC(F)(F)c1nnc(N2CCN(c3ccc(Cl)cc3)CC2)s1,8%,1,·,·,-1.8,
Cc1nc2cc(NC(=O)N3CCN(c4ccccn4)CC3)ccc2o1,-9%,1,-26,12,-2.8,
COc1ccc(C(C(=O)NC2CCCC2)N(Cc2ccc(F)cc2)C(=O)c2ccn[nH]2)cc1OC (stereo unspecified),1%,-4,-46,3,0.4,
Nc1ccc2nc(NC(=O)C3CCCCC3)sc2c1,-7%,2,·,-22,-1.3,
CCOC(=O)c1c(C)[nH]c(C(=O)C(Cc2ccccc2)N(C)C)c1C (stereo unspecified),·,-12,-18,2,1.0,
COc1ccc(C(=O)c2c(C)c3ccccc3n2CC(O)CNC(C)C)cc1 (stereo unspecified),2%,1,-23,-43,1.1,
O=c1c2cn[nH]c2nc(SCc2ccc3c(c2)OCCO3)n1-c1ccccc1,-1%,0,7,-10,9.5,
CC(=O)N1CCSc2ccc(S(=O)(=O)N3CCC(C)CC3)cc21,·,0,·,·,-4.3,
CCOc1ccc(OCCOCCNCCOC)cc1,-1%,0,-28,4,0.0,
O=P(OCC(F)(F)C(F)F)(N1CCOCC1)N1CCOCC1,2%,-1,-16,7,2.1,
Cc1ccc(C2C(C#N)=C(N)SC(N)=C2C#N)c(C)c1,-2%,0,10,4,0.9,
CC(C)(C)OC(=O)N1CCCC1C(=O)NC(Cc1ccccc1)C(=O)O (stereo unspecified),-3%,-6,36,0,-2.0,
NNC(=O)c1cc2c(s1)-c1cc(Cl)ccc1SC2,1%,57,·,·,-8.0,
Cc1ccc2[nH]c(=O)c(-c3noc(C(C)C)n3)cc2c1,8%,-6,-48,8,-1.0,Arbovirus inh repeat=0
O=C(O)c1ccc(S(=O)(=O)NCc2ccc3c(c2)OCO3)cc1,·,12,·,·,2.3,
CCc1ccc(-c2cc(C(=O)O)c3ccccc3n2)s1,·,7,·,·,-12,
Cc1ccc(-c2csc3nc(C)n(-n4cccc4)c(=O)c23)o1,0%,-16,-1,0,-0.3,
O=S(=O)(NCCC1=CCCCC1)c1cccc2nsnc12,1%,·,-26,26,1.4,
CC1(C)CC(=O)C2=C(C1)NC(SCC(=O)Nc1ccccc1)=C(C#N)C21CCCCC1,11%,-10,-26,-5,2.2,
O=C(/C=C/Nc1ccc([N+](=O)[O-])cc1Br)c1cccc2ccccc12,1%,-3,-9,6,1.4,
COC(=O)CC1C(=O)NCCN1C(=O)CSc1nc2ccc([N+](=O)[O-])cc2s1 (stereo unspecified),1%,-14,·,15,0.7,
CSc1nc(NC(C)=O)nc(C)c1Cl,-10%,·,-7,0,-1.9,
CCN(CC)S(=O)(=O)c1ccc2[nH]cc(C(=O)NCCC3=CCCCC3)c(=O)c2c1,4%,99,-11,-17,-0.5,
O=C(NCc1ccc(Cl)s1)c1cc(COc2c(F)cccc2F)on1,10%,-12,·,-6,-1.7,
Cc1c(Oc2ccc(C(F)(F)F)cc2[N+](=O)[O-])ccc2c3c(c(=O)oc12)CCC3,3%,5,-38,-5,-2.1,
O=C1N=C(N2CCN(c3ccccc3)CC2)SC1Cc1ccccc1 (stereo unspecified),2%,-6,-19,3,1.4,
O=C(NC1CCN(Cc2ccccc2Cl)CC1)c1ccccc1,·,3,·,·,-0.4,
Cc1ccc(SCC(=O)OCC(=O)N(CC(C)C)c2c(N)n(Cc3ccccc3)c(=O)[nH]c2=O)c(C)c1,·,4,·,·,0.4,
N#CCc1ccc(C(=O)c2ccccc2)s1,-1%,37,-45,-7,1.9,
CC(C)C(=O)Nc1ccc(NC(=O)c2cccs2)cn1,2%,-1,-29,-7,1.6,
O=C(COC(=O)c1ccc(NS(=O)(=O)c2cccs2)cc1)Nc1nc2c(F)c(F)c(F)cc2s1,-8%,·,·,34*,·,
N[C@H]1CONC1=O,1%,4,·,·,-2.3,
COC(=O)C1=C(C)N(Cc2ccccc2)C(=O)N[C@H]1c1cccc(F)c1,2%,-10,·,·,-0.3,
NC(=O)C1(N2CCCCC2)CCN(C(=S)Nc2ccc(Cl)cc2)CC1,7%,·,-23,0,·,
Cc1ccc(CC(=O)NCCc2ccc(S(N)(=O)=O)cc2)cc1,·,5,·,·,0.7,
CCOc1ccc(C(C)C)cc1S(=O)(=O)n1ccnc1C,-15%,1,·,5,2.6,
CC(C)(C)c1ccc(C(=O)Nc2ccc(C(=O)N3CCOCC3)cc2)cc1,·,0,·,·,0.9,
COc1cccc(NC(=O)/C=C/c2ccccc2[N+](=O)[O-])c1,3%,-1,-17,-8,1.1,
Cc1ccc2nsnc2c1S(=O)(=O)NC1CC1,-1%,16,-3,4,1.7,
O=C(Nc1ccccc1N1CCOCC1)c1ccc2c(c1)OCO2,-4%,0,·,-3,-3.1,
COc1ccc2c(c1)CCc1cc(C(=O)O)sc1-2,-1%,-7,·,·,-5.6,
Cc1cc(N2CCN(c3ccccn3)CC2)n2c(nc3ccccc32)c1C#N,-3%,·,-48,4,-5.0,
c1ccc(C2CC(c3ccccc3)C(c3ccccc3)N2)cc1 (stereo unspecified),·,0,·,·,2.7,
Cc1noc(C)c1C(=O)NNc1cc(Cl)ccc1Cl,59%,97,·,·,-5.1,
O=C1C(=O)N(Cc2ccncc2)C(c2ccccc2F)/C1=C(\O)c1ccc2c(c1)OCCO2 (stereo unspecified),·,-5,·,·,-0.8,
CCc1ccc2oc(C(=O)Nc3nonc3CC)c(C)c2c1,·,-2,·,·,1.0,
Cc1cc(=O)[nH]c(N/N=C/c2ccccn2)n1,2%,4,-25,-30,-11,
CCOc1ccc(S(=O)(=O)NC(Cc2cnc[nH]2)C(=O)O)cc1 (stereo unspecified),4%,-2,·,3,-0.4,
O=c1c2cc(Cl)ccc2[nH]c(=S)n1Cc1cccs1,65%,·,-12,2,0.4,
COC(=O)n1c(=O)oc2cc(S(=O)(=O)N3CCCCC3)ccc21,-3%,-14,-6,15,0.4,
COC(=O)c1cccc(-n2cnnn2)c1,-8%,0,9,8,-0.3,
CCCCNc1c(N)n(CC(C)C)c(=O)[nH]c1=O,3%,5,·,0,-6.9,
COc1ccc(CS(=O)(=O)CC(C)(O)c2ccc(Cl)cc2)cc1 (stereo unspecified),·,-5,·,·,-3.2,
Cc1cc(Cl)c(S(=O)(=O)NCC2CCCO2)cc1OCC(N)=O (stereo unspecified),3%,-3,-57,6,·,
COC(=O)Nc1ccc(OCc2ccccc2)cc1,11%,6,-10,-1,1.5,
COc1ccc(C(O)(C(C)C)C(CN2CCOCC2)c2ccccc2)cc1 (stereo unspecified),·,8,·,·,2.4,
CCN1CCN(c2nc(-c3ccccn3)nc3ccccc23)CC1,-2%,37,-140,-11,0.6,
CCC(=O)N1CCN(c2ccc(NC(=O)c3ccco3)cc2)CC1,0%,-10,-30,2,-0.3,
COC(=O)C(C)Sc1n[nH]c(=S)s1 (stereo unspecified),5%,-8,-34,-3,1.9,
CS(=O)(=O)N(CC(=O)NN=C1CCCCCC1)c1ccc(Oc2ccccc2)cc1,6%,-1,·,-5,-1.6,

# 7 compounds picked at random from the list so far:
SMILES,Mtb growth,Mtb betalactam,YopH PTP inh,Arbovirus inh,RecA intein inh,others
COC(=O)Nc1ccc(OCc2ccccc2)cc1,11%,6,-10,-1,1.5,
CCC(=O)N1CCN(c2ccc(NC(=O)c3ccco3)cc2)CC1,0%,-10,-30,2,-0.3,
O=c1c2cc(Cl)ccc2[nH]c(=S)n1Cc1cccs1,65%,·,-12,2,0.4,
COc1ccc(C(O)(C(C)C)C(CN2CCOCC2)c2ccccc2)cc1 (stereo unspecified),·,8,·,·,2.4,
COC(=O)n1c(=O)oc2cc(S(=O)(=O)N3CCCCC3)ccc21,-3%,-14,-6,15,0.4,
CS(=O)(=O)N(CC(=O)NN=C1CCCCCC1)c1ccc(Oc2ccccc2)cc1,6%,-1,·,-5,-1.6,
CCCCNc1c(N)n(CC(C)C)c(=O)[nH]c1=O,3%,5,·,0,-6.9,

# Further results.
SMILES,Mtb growth,Mtb betalactam,YopH PTP inh,Arbovirus inh,RecA intein inh,others
Cc1cc(N2CCCCC2)c(F)cc1[N+](=O)[O-],0%,3,-15,1,1.8,
COc1ccc2nc3ccccc3nc2c1NC(=O)c1ccc(Cl)cc1Cl,-1%,-2,-42,-11,-29,
CCCCn1c(N)c(N(CCOC)C(=O)c2ccc3c(c2)C(=O)N(c2cc(C)ccc2C)C3=O)c(=O)[nH]c1=O,·,-2,·,·,1.7,
Cc1nc(NC(C)C)c2oc3ccccc3c2n1,4%,-2,-24,-3,-2.1,
CC(C)N1CC(C(=O)Nc2ccc(C#N)cc2)CC1=O (stereo unspecified),·,-1,·,·,1.9,
COc1ccc(C(=O)Oc2cccnc2)cc1,-7%,0,-21,8,1.2,
COc1cc(NC(=O)c2csc(-c3ccncc3)n2)cc(C(=O)Nc2cccc(C(F)(F)F)c2)c1,?,23,·,·,-0.2,
CC(/C=N/NC(=O)c1cc(-c2ccc(C)s2)[nH]n1)=C\c1ccccc1,7%,-1,-14,-34,2.2,
Cc1ccc(/C=C2\SC(=S)N(CCCC(=O)Nc3cccnc3)C2=O)cc1,·,7,·,·,3.8,
CCCn1c(SCC(=O)Nc2ccc(OCC)cc2)nnc1C(C)C,-3%,0,-193,5,0.2,
CSc1ccccc1NC(=O)COc1ccc(S(=O)(=O)N2CCCC2)cc1,2%,9,8,2,0.4,
CCSc1nnc2c(n1)OC=Nc1ccc(Br)cc1-2,0%,-9,3,1,-0.6,

# The final 2 entries of the part above are carried over, then new ones follow.
SMILES,Mtb growth,Mtb betalactam,YopH PTP inh,Arbovirus inh,RecA intein inh,others
CSc1ccccc1NC(=O)COc1ccc(S(=O)(=O)N2CCCC2)cc1,2%,9,8,2,0.4,
CCSc1nnc2c(n1)OC=Nc1ccc(Br)cc1-2,0%,-9,3,1,-0.6,
COCCn1c(COc2cccc(OC)c2)nnc1SCC(=O)NC1CCCC1,·,-3,·,·,-3.7,
CC(=O)c1c(C)[nH]c(C(=O)CN2C(=O)NC(C)(C)C2=O)c1C,·,4,·,·,-4.3,
O=C(CNC(=S)N(Cc1ccccc1)Cc1cccnc1)NCCc1ccccc1,15%,-7,-9,-7,1.2,
CC(C)C(=O)c1cn(CC(=O)NCc2ccco2)c2ccccc12,2%,-12,-14,3,-2.3,
Cc1ccc2c(c1)NC(=O)C(CC(=O)Nc1ccc(Br)c(C)c1)O2 (stereo unspecified),·,7,·,·,-0.2,
COc1ccccc1C(=O)NCC(=O)OCC(=O)c1cccc2ccccc12,·,0,·,·,0.9,
CCN1C(=O)/C(=C/c2ccc(C)o2)N(C)C1=S,5%,-7,-11,3,4.5,
Cc1ccc(S(=O)(=O)Oc2ccc(C(c3c(C)[nH][nH]c3=O)c3c(C)[nH][nH]c3=O)cc2)cc1,7%,-8,8,0,97*,
Cc1ccccc1CN1CCN(S(C)(=O)=O)CC1,-24%,-5,31,-2,1.0,
O=C(Nc1ccncc1)c1cc(-c2cccc(Br)c2)nc2ccccc12,·,-10,·,·,0.2,
CCc1ccccc1NC(=O)c1cc(-c2cccc(O)c2)on1,13%,18,-40,12,1.5,Arbovirus inh repeat=4
Cc1cc(C)c2c(c1)[C@@H]1C=CC[C@@H]1[C@H](c1ccc(S(=O)(=O)N3CCOCC3)cc1)N2,-2%,-2,12,5,·,
Cc1ccc(C(=O)N(CC(=O)NC2CCCC2)Cc2cccs2)s1,-1%,11,-27,1,-1.6,
CC(=O)N1c2ccc(S(=O)(=O)N3CCCC3C(=O)NCc3ccccc3Cl)cc2CC1C (stereo unspecified),·,?,·,·,7.0,
CN(C)C(=O)c1cccn(Cc2cccc(C(F)(F)F)c2)c1=O,1%,-7,·,5,-1.2,
O=C1CCCN1CCCNS(=O)(=O)c1ccc(Br)s1,·,-5,·,·,-0.8,
CCOC(=O)c1ccccc1NC(=O)c1n[nH]c(=O)c2ccccc12,-2%,-3,-30,-1,1.4,
COc1ccccc1NC(=S)NCc1ccco1,-2%,-7,-14,-3,-0.3,
O=C(C[n+]1ccc(/C=N/O)cc1)NC1CCCCC1,4%,-5,·,3,-2.8,
CCOC(=O)C1=C(CC)OC(N)=C(C#N)C1c1cccs1 (stereo unspecified),-14%,-5,-10,1,-1.6,
CC(C)Oc1ccc(C(=O)NC2CCSc3ccccc32)cc1 (stereo unspecified),·,6,·,·,-0.3,
Cn1ncc([N+](=O)[O-])c1C(=O)Nc1ccc2c(c1)OCCO2,-2%,8,-28,4,-2.1,
Cc1[nH]c2ccccc2c1-c1nc(N)sc1C,·,2,·,·,5.7,
